# High-throughput results from PubChem BioAssay.
# RanGTP-Imp inh: inhibitors of RanGTP-importin-beta interaction, primary screen, biochemical, FRET, CFP-Ran, YFP-importin-beta, homogeneous | Ran GTPase (GTP-bound) - importin-beta complex | hit rate 1.1% among 300,000 | AID 2216, 2009 | cell-free CFP-Ran/YFP-importin-beta FRET ratio | inhibition, % (no concentration beside the values);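 active = most replicates above 15%; inconclusive = exactly half above 15%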;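 also: 0% = DMSO wells and 100% = Ran loaded with GDP instead of GTP; wells of about 40 µL received 100 nL stock; the first replicate is given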
# FGF22 binding: binders of human FGF22 protein, primary screen, FGF22 synaptogenesis inhibitor project, biophysical, thermal shift, single point. Fibroblast growth factor 22 (Homo sapiens), Q9HCT0. recombinant FGF22 thermal shift, SYPRO orange fluorescence; percent of sucrose octasulfate shift, DMSO zero. calls only at 9.99 µM. hit rate 1.5% among 340,000. AID 651658, 2012;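 active = melting point raised past a set limit in the mean and every replicate; inconclusive = no clear call; three in four hits are not shown here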
# Target sequence (Q9HCT0 whole entry, looked up): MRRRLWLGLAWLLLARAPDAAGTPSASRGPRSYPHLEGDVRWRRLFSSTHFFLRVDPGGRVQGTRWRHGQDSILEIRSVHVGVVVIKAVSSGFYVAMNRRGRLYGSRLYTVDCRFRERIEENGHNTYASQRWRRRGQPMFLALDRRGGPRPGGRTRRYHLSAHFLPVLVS
# Vif TR-FRET: inhibitors of Vif binding to APOBEC3G peptide, primary screen, biochemical, TR-FRET, GST-Vif 1-94, biotin-A3G peptide, dose response retest (AID 1117319) | inhibition, %; hits with a dose series show IC50 in µM | hit rate 0.57% among 260,000 | TR-FRET GST-Vif / biotin-A3G peptide binding; higher % means a stronger effect; test concentration not given here; strong numbers were not always called active | Virion infectivity factor (Human immunodeficiency virus type 1 group M subtype B (isolate …;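 active = above the screen mean plus three standard deviations and confirmed in dose response; inconclusive = results disagree or hit not tested in dose response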;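 also: Vif residues 1-94 fused to GST binding biotinylated APOBEC3G peptide 110-148; 0% = full assay without inhibitor and 100% = GST in place of GST-Vif; retest series ran down from 100 µM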
# UCH37 inh: inhibitors of human UCH37 deubiquitinase, primary screen, biochemical, Ub-AMC cleavage, fluorescence | purified proteasome/UCH37 | Ubiquitin carboxyl-terminal hydrolase isozyme L5 (Homo sapiens), Q9Y5K5 | inhibition, % (concentration not given with the values) | hit rate 0.33% among 330,000;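 active = mean of two replicates above 20%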;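 also: 0% = compound-free wells with enzyme and 100% = wells lacking proteasome; stock transfer was 100 nL into about 20 µL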
# Target sequence (Q9Y5K5 whole entry, looked up): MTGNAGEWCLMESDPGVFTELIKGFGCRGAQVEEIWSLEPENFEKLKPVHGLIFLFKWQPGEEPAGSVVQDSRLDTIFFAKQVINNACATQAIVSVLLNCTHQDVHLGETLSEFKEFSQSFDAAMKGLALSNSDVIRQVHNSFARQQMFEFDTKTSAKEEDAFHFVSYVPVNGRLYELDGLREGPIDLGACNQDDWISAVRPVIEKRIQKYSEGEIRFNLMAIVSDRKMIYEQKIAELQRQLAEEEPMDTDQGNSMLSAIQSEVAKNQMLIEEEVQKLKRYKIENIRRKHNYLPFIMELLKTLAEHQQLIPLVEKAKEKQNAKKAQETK
#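 Signal – fluorescence, ex 355 nm, em 460 nm · System – Proteasome-bound UCH37 · Input – 0.15 nM proteasome as dispensed · Timing – 30 min preincubation with enzyme, 25 min cleavage at room temperature · Read-out basis – percent inhibition of cleavage signal versus uninhibited and no-proteasome wells · Medium – Tris-HCl pH 7.4 with ATP-MgCl2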
# Ecoli growth: E. coli growth inhibition, primary screen, OD600. Escherichia coli growth, 23 h; active compounds read low. OD600 absorbance (no concentration beside the values). hit rate 0.21% among 330,000;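 active = OD600 absorbance below the run mean of sample wells minus 3.6 SD, in any replicate, cut at about 0.56 in these data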;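 also: stock transfer was 300 nL into about 60 µL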
# MLL AF4-AF9 inh: inhibitors of AF4 peptide binding to AF9, primary screen, biochemical, AlphaScreen, biotin-AF4 peptide, FLAG-AF9, single point; hit rate 0.47% among 350,000; inhibition, % at 10 µM;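 active = every replicate reaching a set inhibition limit, whatever the replicate mean, cut at about 25% in these data; inconclusive = mean inhibition reaches that limit but some replicates miss it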;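 also: 0% = plate neutral control median and 100% = total signal loss; the record names both 10 and 1 µM as test concentration; the first replicate is given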
# Target sequence (P42568 whole entry, looked up): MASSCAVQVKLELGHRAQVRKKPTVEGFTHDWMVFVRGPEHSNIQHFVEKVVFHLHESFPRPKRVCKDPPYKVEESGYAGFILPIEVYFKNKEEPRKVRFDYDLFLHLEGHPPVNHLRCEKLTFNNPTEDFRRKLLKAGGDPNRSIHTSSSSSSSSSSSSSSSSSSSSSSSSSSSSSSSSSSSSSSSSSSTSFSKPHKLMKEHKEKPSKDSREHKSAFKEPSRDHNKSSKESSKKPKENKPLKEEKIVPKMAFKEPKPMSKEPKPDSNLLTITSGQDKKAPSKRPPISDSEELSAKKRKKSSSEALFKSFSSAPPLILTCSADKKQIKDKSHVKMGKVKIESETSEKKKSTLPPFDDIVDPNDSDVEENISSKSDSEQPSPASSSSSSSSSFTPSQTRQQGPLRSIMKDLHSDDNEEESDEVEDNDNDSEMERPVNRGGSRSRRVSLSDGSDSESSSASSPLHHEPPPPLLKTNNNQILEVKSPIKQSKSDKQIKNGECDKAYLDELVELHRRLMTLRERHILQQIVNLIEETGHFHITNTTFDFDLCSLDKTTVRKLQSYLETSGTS
# HNF4A DNA FP: change in binding of human HNF4A to DNA, primary screen, biochemical, fluorescence polarization, FITC-DNA; 1 h; AID 1224865, 2016; Hepatocyte nuclear factor 4-alpha (Homo sapiens), P41235; hit rate 0.3% among 360,000; activity change, % at 10 µM; in the data active = activity change above about 30%, passing the limit was not always enough;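 also: controls were the assay level and a saturating level of protein; the project sought stronger binding though the title names inhibitors; some compounds called inactive have numbers as strong as hits; positive values seem to mean higher polarization but the record does not say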
# * = called active by the depositor; i = inactive; ? = inconclusive; / = no result given; & = joins results of further samples.
SMILES,RanGTP-Imp inh,FGF22 binding,Vif TR-FRET,UCH37 inh,Ecoli growth,MLL AF4-AF9 inh,HNF4A DNA FP
COc1ccc(OC)c(NC(=O)c2cc(-c3cc(C)ccc3O)n[nH]2)c1,0.5,i,/,-4.5,0.71,-2.0,-1.2
COc1ccc(-n2c(N)c(-c3nc4ccccc4n3C)sc2=S)cc1,9.2,/,7%,1.6,0.76,/,5.1
COCCCNC(=O)c1cn(C)c(=O)c2cc(OC)c(OC)cc12,3.4,/,-8%,5.3,0.68,/,-4.9
Cc1ccc(Sc2nc(C)cc(C)c2S(C)(=O)=O)cc1,-5.0,/,-7%,3.7,0.66,/,-1.1
COc1ccc(CNC(=O)C(C)OC(=O)c2cccs2)cc1 (stereo unspecified),4.8,/,/,2.2,0.71,-2.2,-1.9
Cn1c(-c2ccc(CN3CCCCC3)o2)nc2ccccc21,2.5,/,-1%,-9.4,0.71,/,3.2
Cc1ccc(-c2cc3ccccc3nc2N2CCOCC2)cc1,-2.9,i,-11%,-38,0.64,-6.5,-6.0
CCCCN1C(=O)C2C(c3ccc(OC)cc3O)NC(CC(C)C)(C(=O)O)C2C1=O (stereo unspecified),-2.8,i,3%,3.6,0.69,3.3,-2.1
COc1ccccc1N1CCN(S(=O)(=O)c2ccc3c(c2)oc(=O)n3C)CC1,3.0,i,/,-0.4,0.7,-4.0,-1.4
COCC1CCCCN1C(=O)c1ccc2nc(Cc3ccc(OC)c(OC)c3)oc2c1 (stereo unspecified),-0.4,i,-1%,1.6,0.72,0.8,-1.2
O/N=C\c1ccccc1Oc1ccc(F)cc1,6.3,i,2%,/,/,-1.1,0.8
C#CCSc1nnc(-c2ccc([N+](=O)[O-])cc2)o1,6.2,i,-1%,6.2,0.69,-0.9,-0.5
COc1cc2c(cc1OC)C(c1ccc([N+](=O)[O-])cc1)N(C(C)=O)CC2 (stereo unspecified),-3.5,i,/,0.7,0.73,0.3,-0.2
CCOC(=O)[C@H]1[C@H]2COc3ccc(Cl)cc3[C@@H]2N2C(=O)CN(Cc3ccccc3)C(=O)[C@@]12C,/,i,/,3.6,/,3.1,1.6
COC(=O)/C=C\C(C#N)(C#N)N=Cc1ccc(OC)cc1,/,i,/,/,/,0.1,5.1
CC[C@]12c3[nH]c4ccc(Cl)cc4c3CCN1C(=O)[C@@H](CC(=O)NCc1ccco1)C[C@@H]2C(=O)N1CCN(C(=O)c2ccco2)CC1,/,i,-11%,3.2,0.68,6.3,2.8
COc1ccc(C2(c3ccc(OC)cc3)NC(=O)N(CC(=O)Nc3ccccc3)C2=O)cc1,3.0,i,/,2.4,0.7,-4.6,-1.2
Cc1[nH]nc2c1C(c1ccc(O)cc1)C1=C(CC(C)(C)CC1=O)N2 (stereo unspecified),-0.9,i,-1%,-35,0.73,0.0,-0.1
COc1ccccc1N(CC(=O)N(C)Cc1ccccc1)S(=O)(=O)c1cccs1,/,i,0%,3.4,0.68,-2.0,-1.6
COc1ccc(CCNC(=O)CCCCCn2c(SCC(N)=O)nc3cc4c(cc3c2=O)OCO4)cc1OC,-1.4,i,1%,1.2,0.65,-2.4,0.7
O=C(CC1C(=O)NCCN1CC1CCCCC1)NCc1ccccc1Cl (stereo unspecified),0.5,i,1%,-3.9,0.7,3.0,1.1
COc1ccc(S(=O)(=O)NC(C)C(=O)NCc2ccncc2)cc1OC (stereo unspecified),-3.3,i,/,4.0,0.69,-0.7,-1.2
COc1ccc(C(=O)CN2CCN(c3ccc(F)cc3)CC2)cc1,3.1,i,/,3.1,0.69,-0.8,4.8
COc1ccc(C(=O)CC(=O)C(=O)Nc2ccc(C)c(Cl)c2)cc1,3.5,i,-2%,7.2,0.64,0.6,-0.5
Cc1occc1C(=O)N1CCCC(CO)(Cc2ccc(F)cc2F)C1 (stereo unspecified),2.8,i,0%,3.2,0.71,-19,-3.6
CC1CCCN(c2nc3c(c(=O)[nH]c(=O)n3C)n2CCSc2nc3ccccc3o2)C1 (stereo unspecified),-9.3,i,30%,2.4,0.74,0.8,-0.1
CCCNS(=O)(=O)c1ccc(OCC(=O)N2CCOCC2)cc1,-2.3,i,-3%,1.1,0.69,0.5,-5.5
CCN(CC)C(=O)CCCOc1ccc(Cl)cc1Cl,-5.4,/,8%,-1.3,0.69,/,-1.2
N#CCN(N=Nc1ccccc1)c1ccccc1,7.8,i,-2%,4.2,0.67,4.8,1.9
CN(/N=C/c1cccnc1)c1cnn(-c2ccc(F)c(Cl)c2)c(=O)c1Cl,2.0,/,-2%,/,/,/,1.5
CSCCC(NC=C1C(=O)OC(C)(C)OC1=O)C(=O)O (stereo unspecified),-13,/,-7%,-20,0.68,/,-0.7
Cc1ccc(S(=O)(=O)NC2CCCCC2)c2nsnc12,-5.7,i,-3%,6.4,0.65,-3.3,-0.6
Cc1nc(N/C(N)=N/S(=O)(=O)c2ccccc2)nc2ccccc12,/,i,-7%,-7.8,0.68,-2.0,-0.8
CC(C)NC(=O)N(C)C[C@H]1Oc2c(cccc2N(C)C)C(=O)N([C@H](C)CO)C[C@@H]1C,/,i,/,2.9,/,-11&3.4,1.3
O=C(Cn1c(=S)[nH]c2ccccc2c1=O)N1CCN(c2ccccc2)CC1,-1.7,i,2%,0.3,0.69,0.7,-0.4
Cc1cc(C(=O)Nc2nncs2)oc1C,0.3,i,/,1.2,0.64,-11,-0.3
Cc1ccc(C2CC2c2n[nH]c(=S)n2-c2cccc(Cl)c2)cc1 (stereo unspecified),6.1,/,4%,1.6,0.61,/,-1.6
COC(=O)c1cc(C(=O)OC)cc(S(=O)(=O)Nc2ccc(Cl)c(N)c2)c1,-3.8,/,-4%,1.0,0.69,/,-3.4
CNc1ccc2ncc(-c3ccccc3C(C)=O)n2n1,/,i,/,/,/,-2.9,-3.6
COc1ccc(S(=O)(=O)N2CCC(C(=O)N3CCCC3)CC2)cc1Cl,3.3,/,4%,-0.4,0.68,/,0.4
CC(C)CC(NS(=O)(=O)c1ccc2[nH]c(=O)c(=O)[nH]c2c1)C(=O)O (stereo unspecified),-3.7,i,-5%,-5.2,0.72,-1.6,-3.0
O=C(Nc1cc(Cl)cc(Cl)c1)C1CC(=O)N(C2CCCC2)C1 (stereo unspecified),-2.0,i,7%,-0.4,0.68,1.0,-2.8
COc1cccc(CN2CCN(C(=O)c3cc(-c4ccncc4)nc4ccc(C)cc34)CC2)c1,0.4,i,/,4.2,0.7,9.8,3.3
CS(=O)(=O)Nc1ccccc1C(=O)NCC1(N2CCCCC2)CCCCC1,4.5,i,/,-96,0.68,-1.0,3.7
COc1ccc(CCCC(=O)NCCc2ccccc2)cc1,-1.2,i,/,1.3,0.69,-2.7,-2.4
CN(CC(=O)Nc1ccc(F)c(F)c1F)C(=O)c1ccc(=O)[nH]c1,0.3,i,/,0.4,0.69,-2.7,5.1
Cc1nnc(NC(=O)CSc2nnc(Cc3cccn3C)n2C)s1,0.1,i,5%,4.1,0.79,5.3,-3.3
COc1ccc(-n2c(-c3ccc(Cl)cc3)c[n+]3c2CCCCC3)cc1,0.4,/,?,8.2,0.66,-2.7,2.0
CCn1c(SCc2cc(=O)[nH]c3ccccc23)nnc1C1CC1,1.6,/,2%,6.4,0.67,/,-2.8
O=C(N/C=C/n1cnc2cc(C(F)(F)F)ccc21)c1ccccc1,-2.8,i,/,0.1,0.65,-0.9,6.1
CC(=O)Oc1ccc(C2(C)CC(C)(C)NC(=S)N2C)c(OC(C)=O)c1 (stereo unspecified),1.7,i,-12%,0.3,0.62,-2.0,2.1
C=CCNC(=O)c1ccc(CNS(=O)(=O)c2ccc(NC(C)=O)cc2)cc1,-2.7,/,-1%,1.4,0.71,/,-3.8
NC(=O)c1ccccc1NC(=O)CCc1ccccc1,?,i,4%,-0.1,0.7,1.1,-5.3
Cc1ccc(N2C(=O)C3NN=C(C(=O)OCc4ccccc4)C3C2=O)c(C)c1 (stereo unspecified),-0.7,i,-1%,0.8,0.7,-28,2.0
CCCOc1c(Cl)cc(C(=O)NC)cc1OC,2.8,i,2%,/,/,1.9,1.2
Cc1ccc(-n2nc3ccc(NC(=S)NC(=O)/C=C/c4ccco4)cc3n2)cc1,4.1,i,-44%,/,/,6.3,7.3
COC(=O)c1ccccc1S(=O)(=O)N1CCC(C(=O)NCc2ccco2)CC1,/,i,-2%,0.8,0.64,0.8,1.2
COc1ccc(S(=O)(=O)NCCC(=O)OCC(=O)c2ccc[nH]2)cc1[N+](=O)[O-],/,i,0%,1.3,0.7,1.9,-6.5
C[C@@H]1CN([C@H](C)CO)C(=O)c2cc(Br)cnc2O[C@H]1CN(C)Cc1cccnc1,/,i,/,/,/,-3.3&-1.5,0.3
Cc1ccc(N2C(=O)N3[C@H]4c5ccccc5OC[C@@H]4[C@@H](c4ccccc4)[C@@]3(C)C2=O)cc1,2.9,/,/,0.8,/,/,-3.1

# Retrieved by compound from above:
SMILES,RanGTP-Imp inh,FGF22 binding,Vif TR-FRET,UCH37 inh,Ecoli growth,MLL AF4-AF9 inh,HNF4A DNA FP
COC(=O)c1ccccc1S(=O)(=O)N1CCC(C(=O)NCc2ccco2)CC1,/,i,-2%,0.8,0.64,0.8,1.2
CCn1c(SCc2cc(=O)[nH]c3ccccc23)nnc1C1CC1,1.6,/,2%,6.4,0.67,/,-2.8

# (list continues)
SMILES,RanGTP-Imp inh,FGF22 binding,Vif TR-FRET,UCH37 inh,Ecoli growth,MLL AF4-AF9 inh,HNF4A DNA FP
O=C(CSc1ccc(Cl)cc1)Nc1ccc(N2CCN(c3ccccc3)CC2)c(F)c1,-0.4,/,15%,-0.4,0.74,/,-0.7
COc1ccc(C2Nc3ccccc3C(=O)N2C2CCCCC2)cc1 (stereo unspecified),3.1,/,-8%,-335,0.66,1.4,-2.9
O=c1n(-c2ccccc2)c(=O)n2n1CCCC2,0.8,/,1%,0.3,0.65,/,4.1
CCOc1c2ccc(C(=O)NCc3ccco3)cc2nn1CCOC,2.6,i,9%,-89,0.69,-1.0,-0.2
CN1CCC(NC(=O)C2(C)CCN2Cc2ccc3ccccc3c2)CC1 (stereo unspecified),/,i,/,/,/,-4.2,0.2
CS(=O)(=O)c1ccc(C(=O)Nc2cc(S(C)(=O)=O)ccc2Cl)cc1,-3.2,i,/,2.4,0.69,-1.8,1.3
Cc1ccc(S(=O)(=O)N2CCOCC2)c2nsnc12,2.3,/,-1%,5.0,0.67,/,3.9
Cc1cc(C)nc(NC(=O)c2ccc(Br)cc2)n1,0.1,i,/,-0.6,0.64,7.3,-0.9
Cc1ccccc1-c1noc(-c2ccccc2C(=O)NCc2ccco2)n1,-1.6,i,2%,6.9,0.7,-1.2,-2.3
Nn1c(Cc2cccc3ccccc23)nnc1SCC(=O)NC1CCS(=O)(=O)C1 (stereo unspecified),5.8,/,0%,0.8,0.66,/,5.7

# One compound at a time, from the list above. Values in the order: RanGTP-Imp inh	FGF22 binding	Vif TR-FRET	UCH37 inh	Ecoli growth	MLL AF4-AF9 inh	HNF4A DNA FP
# `CCOc1c2ccc(C(=O)NCc3ccco3)cc2nn1CCOC` as listed: 2.6	i	9%	-89	0.69	-1.0	-0.2
# `Cc1ccccc1-c1noc(-c2ccccc2C(=O)NCc2ccco2)n1` as listed: -1.6	i	2%	6.9	0.7	-1.2	-2.3

# Only part of the results is shown. The share of hits here may be higher or lower than overall.
